# Screens as filed in PubChem BioAssay.
# NPYLR7 ag: agonists of mosquito NPYLR7 receptor, primary screen, cell-based, Aedes aegypti, calcium fluorescence, mosquito biting behavior | hit rate 0.15% among 270,000 | HEK293T NPYLR7/Galpha15, GCaMP6s calcium fluorescence | AID 1259423, 2018 | activation, % at 10 µM; in the data active = activation above about 40%;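 note: 0% = vehicle and 100% = reference agonist at the receptor; some compounds past the cut are filed as inactive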
# NPYLR7 ag max-min: second read-out of NPYLR7 ag, no call of its own (marks repeat the call); activation, %; measured here: Max-Min RFU normalised activation; some inactives read as strong as hits;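 span of the calcium signal over five minutes; 0% = vehicle and 100% = native peptide agonist; compound fluorescence can raise it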
# * hit, by the source's call; & = joins results of further samples. Only part of the results is shown; rates above refer to the full screens.
SMILES,NPYLR7 ag,NPYLR7 ag max-min
Cc1ccccc1C(=O)N[C@@H]1CCCCC1NC(=O)C1CCCN(C(=O)N(C)C)C1 (stereo partly specified),0,2
O=C(CSc1ccc2c(c1)OCCO2)NS(=O)(=O)c1ccccc1Br,1,-6
Cc1cccc2c(-c3cc(C(N)=O)ccn3)c[nH]c12,4,5
Cc1ccc2ncn(C3CCN(C(=O)C(C)CC(F)(F)F)CC3)c2c1 (stereo unspecified),5,0
CCC(C)(C#N)NC(=O)CC1CCCO1 (stereo unspecified),-3,-6
NC(=O)COc1cc2c(-c3cc4ccccc4o3)cc(=O)oc2cc1-c1ccccc1,0,-5
COc1ccccc1-n1c(Cc2ccccc2)nnc1SCc1ccc(C(=O)NCc2ccncc2)cc1,17,16
O=C(c1cc(-n2cnnn2)ccc1O)N1CCCC(CCc2ccc(F)cc2)C1 (stereo unspecified),2,0
CSCc1nc2sc3c(c2c(=O)[nH]1)CCCC3,4,11
O=c1c2cnc(N3CCCC3)nc2ccn1-c1cccc(F)c1,0,-2
COc1ccc(OCCSc2nnc(-c3c[nH]c4ccccc34)o2)cc1,-2,-4
CNc1ncc(CN(C)C(=O)c2cc(CC(C)C)nn2C)cn1,3,1
COc1cc(NC=c2c(C)c(C#N)c3nc4ccccc4n3c2=O)cc(OC)c1,2,1
COc1ccc([N+](=O)[O-])cc1NC(=O)c1c([N+](=O)[O-])cnn1C,-3,-10
COCCn1c(Cc2ccccc2)n[nH]c1=S,-7,-11

# Already shown: an excerpt of the list.
SMILES,NPYLR7 ag,NPYLR7 ag max-min
Cc1ccccc1C(=O)N[C@@H]1CCCCC1NC(=O)C1CCCN(C(=O)N(C)C)C1 (stereo partly specified),0,2
O=C(CSc1ccc2c(c1)OCCO2)NS(=O)(=O)c1ccccc1Br,1,-6
Cc1cccc2c(-c3cc(C(N)=O)ccn3)c[nH]c12,4,5
Cc1ccc2ncn(C3CCN(C(=O)C(C)CC(F)(F)F)CC3)c2c1 (stereo unspecified),5,0
CCC(C)(C#N)NC(=O)CC1CCCO1 (stereo unspecified),-3,-6
NC(=O)COc1cc2c(-c3cc4ccccc4o3)cc(=O)oc2cc1-c1ccccc1,0,-5

# Other entries follow:
SMILES,NPYLR7 ag,NPYLR7 ag max-min
COCC(=O)N1CC(=O)N(Cc2cccc(F)c2)CC(O)C1 (stereo unspecified),17,18
N#Cc1c(SCC(N)=O)nsc1SCC(N)=O,11,4
CN(CC(=O)NCc1ccccc1F)Cc1nc2ccccc2n1C,-3,-6
CC(C)[C@H](CO)Nc1nccc2[nH]c(-c3cccc(C(F)(F)F)c3)nc12,-5,-11
COc1ccc(-c2nccn2CCc2ccccn2)c(OC)c1,-1,-1
CCC(C)c1c(O)nc2n(c1=O)CCCS2 (stereo unspecified),3,4
Cc1cc(NCc2ccccc2)nc(-c2ccccc2O)n1,3,0
CCn1ccnc1CN(C)C(=O)[C@@]12CNC[C@@H]1CN(C(=O)COC)C2,0,-12
CCN1CCN2CCCN(S(=O)(=O)c3cccc(F)c3)C2C1=O (stereo unspecified),0,-2
O=c1c2ccccc2sc2ccc(NS(=O)(=O)c3ccccc3)cc12,3,2
CC(O)c1ccccc1-c1ccccc1 (stereo unspecified),5,4
CC(C)c1cccc(C(C)C)c1NC(=O)NCc1nnc(SCc2ccccc2)n1-c1ccc([N+](=O)[O-])cc1,-2,-1
Cc1ccc(CN2CCCN(S(=O)(=O)c3ccc(S(=O)(=O)N4CCOCC4)cc3)CC2)cc1,24,13
CCc1ccc2nc(N(CCN(C)C)C(=O)c3ccc(Cl)s3)sc2c1,-4,-9
O=S(=O)(c1ccc(F)cc1)N1CCCCC1,-1,3

# The final 5 entries of the part before lead into the next:
SMILES,NPYLR7 ag,NPYLR7 ag max-min
CC(O)c1ccccc1-c1ccccc1 (stereo unspecified),5,4
CC(C)c1cccc(C(C)C)c1NC(=O)NCc1nnc(SCc2ccccc2)n1-c1ccc([N+](=O)[O-])cc1,-2,-1
Cc1ccc(CN2CCCN(S(=O)(=O)c3ccc(S(=O)(=O)N4CCOCC4)cc3)CC2)cc1,24,13
CCc1ccc2nc(N(CCN(C)C)C(=O)c3ccc(Cl)s3)sc2c1,-4,-9
O=S(=O)(c1ccc(F)cc1)N1CCCCC1,-1,3
COCCn1ccc2cc(Nc3nn4c(=O)ccnc4s3)ccc21,6,2
CN(C)C(CNC(=O)c1csc2c1CCCC2)c1cccs1 (stereo unspecified),-4,-3
CCn1c(SCC(=O)N2CCCC2=O)nnc1-c1cccs1,0,0
CCOC(=O)C1(NCCn2cccn2)CCCCC1,-8,-12
CCOC(=NCc1ccc2c(c1)OCO2)NC(=O)c1ccc(Cl)c(Cl)c1,-1,-1
Cc1cc(-c2csc(NC(=O)C3CCC3)n2)c(C)n1Cc1ccccc1,1,0
CCC(NC(=O)N1CCC(C(=O)N(CC)CC)CC1)c1cccc(Cl)c1 (stereo unspecified),12,7
CCc1ccc(-c2nccn2CCc2nc(-c3cccnc3)no2)nc1,7,3
Cc1nc2c(c(NCC3(N4CCOCC4)CCCCCC3)n1)CCNC2,8,2
CC(C)(C)NC(=O)[C@@H]1CCCC[C@@H]1C(=O)NCCc1cnc[nH]1,2,2
Cc1ccc(N2C(=O)CSC2c2cccc(NS(=O)(=O)c3ccc(Cl)cc3)c2)c(C)c1 (stereo unspecified),9,9
O=C(c1n[nH]c(C2CC2)c1Br)N1CCCCCCC1,-22,-23
COc1cc(-c2nc(CN3CCCCC3CCN3CCCC3=O)c(C)o2)ccc1F (stereo unspecified),7&0,5&0
CC(C)c1ccc(NC(=O)CSc2nc(=O)n(CCCN3CCOCC3)c3c2CCCC3)cc1,4,3
Nc1ncnc2c1ncn2[C@@H]1O[C@H](COP(=O)(O)O)[C@@H](O)[C@H]1O,6,1

# Structures shown so far that contain bromine:
SMILES,NPYLR7 ag,NPYLR7 ag max-min
O=C(CSc1ccc2c(c1)OCCO2)NS(=O)(=O)c1ccccc1Br,1,-6
O=C(c1n[nH]c(C2CC2)c1Br)N1CCCCCCC1,-22,-23

# The list goes on.
SMILES,NPYLR7 ag,NPYLR7 ag max-min
Cn1c(=O)c2c(ncn2CCC(=O)N2CCCCC2)n(C)c1=O,-2,-1
CN(C)Cc1ncccc1O,6,0
CCCCN(C=O)c1c(CC)nc2ccc(C(=O)Nc3cc(-c4ccccc4)ccc3OC)cn12,7,-2
COCCN(Cc1cc(Cl)ccc1OCc1nc(CO)cs1)C(=O)Cc1ccccc1,3,13
COc1ccccc1OCC1c2ccsc2CCN1C(=O)CN(C(=O)NC(C)(C)C)C1CC1 (stereo unspecified),-2,-1
CCOC(=O)c1ccc2c(c1)nc(SCc1cccc(C#N)c1)n2CCc1ccc(OC)cc1,-7,-12
CCc1ccc(CN(C)C(=O)NC(C)c2cccs2)cc1 (stereo unspecified),-2,-4
CC(=O)c1ccc(NC(=O)Cn2nc(C)cc2C)cc1,-9,-19
CCOC(=O)COc1ccc2snnc2c1Cl,11,12
Cc1cccc2[nH]c(COCC(=O)N3CCC4(CCCNC4)C3)nc12 (stereo unspecified),8,5
CCc1ccc(C2=Nn3c(Cc4ccccc4F)nnc3SC2)cc1,-3,-6
Cc1oc2cc(Br)c(OCC(=O)C(C)(C)C)cc2c1C(=O)OC(C)C,-7,-12
COc1ccc2[nH]c3c(c2c1)CCN(C(=O)c1cc(Cl)cc(Cl)c1)C3c1ccccc1OC (stereo unspecified),23,16
O=C1NCCN(C(=O)c2cccc3ccnn23)C1CCO (stereo unspecified),1,-3
Cc1occc1C(=O)Nc1ccc(N2CCOCC2)cn1,3,3
CCCCCn1c(N2CCCC2)nc2c1c(=O)n(C)c(=O)n2C,3,-4
Cc1nc(CN2CCN(c3nc4nonc4nc3N3CCOCC3)CC2)cs1,15,6
O=C(N[C@@H]1CCCCC1NC(=O)C1CCN(S(=O)(=O)c2ccc(Br)cc2)CC1)c1ccccc1 (stereo partly specified),29,25
CN(C(=O)c1coc(COc2ccc(F)cc2Cl)n1)C1CCOCC1,-2,-6
Cc1ccccc1-n1ncc(C(C)NC(=O)CCc2c(C)nn(C)c2C)c1C (stereo unspecified),15&8,5&7
Cc1ccccc1CN(C)C(=O)c1ccco1,1,1
CN(C)c1ccc(C=C2CCC(=C3SCCS3)C2=O)cc1,3,2
COc1ccc(NC(C)C(=O)NC2CCCCC2)cn1 (stereo unspecified),6,5
CS(=O)(=O)NC1CCCN(Cc2ccccc2Oc2cccnc2)C1 (stereo unspecified),12,7
CCC(C)Cn1c(-c2ccc(OC)cc2)csc1=Nc1cccc(Cl)c1 (stereo unspecified),-15,-23
O=C(O)c1cccc(-n2ccnn2)c1,0,-1
CC(C)=CCC/C(C)=C/CNC(=O)c1sc(C)c(C)c1-n1c(C)ccc1C,-3,-8
O=C1NCCN(CCc2ccccc2)C1CC(=O)N1CCCN(Cc2cccs2)CC1 (stereo unspecified),5,2
CC(C)CCN(CC(=O)N1CCc2sccc2C1COc1cccc(F)c1)C(=O)c1cccs1 (stereo unspecified),-3,4
CC(C)CC(Nc1nc(-c2cccnc2)nc2c1CNC2)c1ncnn1C (stereo unspecified),10,6
CCC(C(=O)Nc1ccc(OC)c(OC)c1)n1c(=O)n(-c2cccc(C)c2)c(=O)c2ccc(Cl)cc21 (stereo unspecified),5,7
O=c1c2cccc3cccc(c32)c2nc3ncc(Br)cc3n12,14,7
Cc1ccc(/C=C2\SC(=Nc3ccc4ccccc4c3)NC2=O)cc1,0,-1
Cc1ccccc1-c1cnc(-c2ccncc2)nc1C1CCCN(Cc2ccc(O)cc2)C1 (stereo unspecified),7,2
CC(=O)Nc1ccc(Nc2cc(C(C)C)nc3c(-c4ccccc4)cnn23)cc1,2,6
CCC(NC(=O)C1CCN(c2ccccc2[N+](=O)[O-])CC1)c1ccc(C)cc1 (stereo unspecified),15,9
CN1C(=O)NC(c2ccc(C(C)(C)C)cc2)C2=C1CN(CC(=O)NCc1ccncc1)C2=O (stereo unspecified),5,9
CN(Cc1ccc(N2CCCCC2)cc1)C(=O)Nc1ccccn1,1,0
CCOc1nn(CC)cc1-c1nnc(SCC(=O)NC)n1C,10,8
COc1ccc(-n2c(SCC(=O)N3CCOCC3)nc3sc4c(c3c2=O)CCC4)cc1,-5,-9
Cc1[nH]ncc1-c1nc(-c2ccc(F)cc2)c(-c2ccc(F)cc2)[nH]1,6,7
Cc1ccccc1CN1CCN(c2ncc(C(=O)NCCC(F)(F)F)s2)C1=O,0,-3
Cc1cn2c3c(=O)n(CCN4CCCCC4)c(=O)n(C)c3nc2n1-c1ccc(F)cc1,10,5
CC(C)=CCC/C(C)=C/COc1ccc2oc3cc(O)cc(O)c3c(=O)c2c1,-7,-16
COc1ccccc1-n1c(-c2ccc(Cl)cc2)cc(C(=O)NCCCN2CCCCC2C)c1C (stereo unspecified),2,21

# Compound profiles (already shown). Screens in order: NPYLR7 ag | NPYLR7 ag max-min
# Entry for O=C1NCCN(CCc2ccccc2)C1CC(=O)N1CCCN(Cc2cccs2)CC1 (stereo unspecified) : 5 | 2
# Entry for CCC(C)(C#N)NC(=O)CC1CCCO1 (stereo unspecified) : -3 | -6

# Next section
SMILES,NPYLR7 ag,NPYLR7 ag max-min
COCCn1c(=O)c2c(nc3n(C(C)C)c(C)cn23)n(C)c1=O,5,-1
Cc1ccccc1C1N(c2nccs2)C(=O)C2CCCN21 (stereo unspecified),4,2
O=[N+]([O-])c1ccc(-n2cccc2)nc1,21,36
COc1ccccc1-c1noc(COC(=O)C2CCCCC2)n1,2,1
CCN(CC)CCCN1C(=O)C2C3C=CC(C3)C2C1=O (stereo unspecified),9,6
CCn1cc(-c2c(-c3ccccc3)ncn2CCN2CCCCC2CO)cn1 (stereo unspecified),3,0
